# Screens from PubChem.
# Menin-MLL FL inh – inhibitors of human menin-MLL interaction, wild-type MLL peptide. 290,000 tested, under 10 active. FP activity change, % at 61.4 µM. Fluorescence polarization, fluorescein-MLL peptide displacement from menin; inconclusive = falling polarisation curve, or a change in total fluorescence; inactive = total fluorescence flat and polarisation flat or rising; no compound was filed as active; the % refers to the polarisation; negative = inhibition;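 further: % of control where 0% means no effect; inhibitors lower the polarisation; unlabelled MLL peptide was the positive control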
# TRPV1 PAM – enhances activation of the human vanilloid receptor TRPV1; potentiation, % at 8.33 µM; AID 540277; Q8NER1; 320,000 compounds, 0.02% hits; TRPV1-expressing cells, Fluo-8 calcium influx, capsaicin EC20 potentiation; host cell line not named in the record; control for the full effect not named in the record; active means potentiation above 80%; inconclusive means 30% to 80%; inactive means below 30%; further: 0% is about no effect
#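 Fluo-8 calcium influx in TRPV1-expressing cells, kinetic read (ex 480/em 520 nm). Compound added and read 3 min for agonist activity, followed by capsaicin at EC20 final and 2 min further read for enhancement.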
# D2 potentiator – human D2 receptor positive allosteric modulation; P14416; DiscoveRx D2 beta-arrestin cells, luminescence, 90 min; 100% = 57 uM dopamine signal; potentiation, % (test concentration not listed); 360,000 compounds, 0.23% hits; AID 624464; active = potentiation of 50% or more; inconclusive = 30% to 50%; inactive = 30% or less;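 further: compound concentration not given in the record; tested on top of an EC20 dose of dopamine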
# Target sequence (P14416 whole entry, looked up): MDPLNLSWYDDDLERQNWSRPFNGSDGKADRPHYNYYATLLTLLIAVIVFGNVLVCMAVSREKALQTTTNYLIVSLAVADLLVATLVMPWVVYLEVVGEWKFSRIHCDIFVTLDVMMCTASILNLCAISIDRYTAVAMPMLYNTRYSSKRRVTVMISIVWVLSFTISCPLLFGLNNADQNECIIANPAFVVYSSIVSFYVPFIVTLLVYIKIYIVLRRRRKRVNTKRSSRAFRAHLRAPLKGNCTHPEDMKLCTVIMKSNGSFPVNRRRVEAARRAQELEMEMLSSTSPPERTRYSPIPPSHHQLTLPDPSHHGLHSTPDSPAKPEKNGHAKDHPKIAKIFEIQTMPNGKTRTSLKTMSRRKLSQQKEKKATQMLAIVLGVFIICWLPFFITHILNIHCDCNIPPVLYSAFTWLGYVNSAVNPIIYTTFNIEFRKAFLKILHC
#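 PathHunter beta-arrestin assay in DiscoveRx D2 cells. Compounds were added with an EC20 of dopamine (50 nM final) for 90 min at 37 deg C. Luminescence was read 1 h after detection reagent, with 57 uM dopamine as the EC100 control.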
# Sfp PPTase inh – Sfp phosphopantetheinyl transferase inhibition; Biochemical Sfp PPTase activity, qHTS; AID 1490; 310,000 compounds, 3.5% hits; Potency, µM, for inactives: max response, negative = inhibition, usual class: inhibitors; Q9F4F7; active means well fitted inhibition curve with a large enough effect; inconclusive means small, poorly fitted or top-dose-only effect, or another doubt; inactive means no such curve, though single readings can be large or run the other way;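 further: the enzyme is Sfp with the accession as filed and its product quenches rhodamine fluorescence; potency means the concentration at half of the fitted maximal effect; 0% = enzyme reaction without inhibitor and -100% = no enzyme wells; top concentration of the series not given in the record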
#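 Fluorescence-quenching assay: 15 nM Sfp-PPTase preincubated 15 min at room temperature with compound, then 5 uM rhodamine-CoA and 12.5 uM BHQ-2-labelled YbbR peptide added. Fluorescence (ex 525/em 598 nm) read at start and after 30 min; difference gives rate.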
# gsp ag – agonists of gsp mutant (McCune-Albright syndrome). gsp mutant cells, cAMP HTRF, 30 min; control for the full effect not named in the record. Potency, µM (highest dose often 76.9 µM), for the others: at the highest dose activation (cAMP increase), actives largely listed as activators. 340,000 compounds, 0.13% hits. AID 624287; active = well fitted activation curve with a large enough effect; inconclusive = small, poorly fitted or top-dose-only effect, or another doubt; inactive = no such curve, though single readings can be large or run the other way; cell line not stated here;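 further: phosphodiesterase inhibitor Ro 20-1724 added with compounds to block cAMP breakdown; potency means the concentration at half of the fitted maximal effect; nearly all actives have a fitted effect of over 60% in size; about a fifth of the inactives were tested at one dose only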
#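 Cells in DMEM/10% FBS with G418 were pretreated with compounds in DMSO plus […] (300 uM stock) for 30 min at 37C. cAMP was measured by HTRF (cAMP-d2 plus anti-cAMP antibody-K) after 30 min at room temperature.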
# gsp antag – antagonizes gsp, the McCune-Albright syndrome mutation; gsp-mutant cells, cAMP HTRF, 30 min; control for the full effect not named in the record; Potency, µM (top dose mostly 76.9 µM), inactives show top-dose activity change, negative = inhibition, usual class: inhibitors; 340,000 compounds, 0.4% hits; AID 624288; active = falling curve of any shape with a large fitted effect; inconclusive = falling curve, mostly with a smaller effect; inactive = flat or rising curve; cell line not stated here;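 further: intracellular cAMP measured with PDE inhibitor Ro 20-1724 present during compound exposure; potency means the concentration at half of the fitted maximal effect; on the % scale 0 is the no-effect control and ±100 the full control effect; nearly all actives have a fitted effect of over 65% in size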
#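 HTRF cAMP read-out (cAMP-d2 plus anti-cAMP antibody-K in lysis buffer, 30 min RT). Before lysis, cells are exposed to compounds with […] for 30 min at 37C in DPBS containing Ca/Mg, BSA and Tween 20.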
# ClpP mod – qHTS Assay for Activators of ClpP | ATP-dependent Clp protease proteolytic subunit (Bacillus subtilis (strain 168)), P80244 | purified B. subtilis ClpP, FRET peptide cleavage, 20 min | 340,000 compounds, 1.9% hits | AID 651965, 2013 | Potency, µM (doses to about 57.5 µM), without a hit: top-dose activity change, negative = active; active = well fitted falling curve with a large enough effect; inconclusive = small, poorly fitted or top-dose-only effect; inactive = no such curve, though single readings can be large or run the other way; further: potency means the concentration at half of the fitted maximal effect; the source files actives as falling curves though it sought activators and does not explain the sign; nearly all actives have a fitted effect of over 65% in size; many hits overshoot -100%
# Target sequence (P80244 whole entry, looked up): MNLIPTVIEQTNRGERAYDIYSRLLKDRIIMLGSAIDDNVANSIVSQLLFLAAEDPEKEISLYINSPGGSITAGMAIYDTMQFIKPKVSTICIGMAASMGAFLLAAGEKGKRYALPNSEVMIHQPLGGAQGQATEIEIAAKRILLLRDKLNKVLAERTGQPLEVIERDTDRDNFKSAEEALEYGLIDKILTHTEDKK
#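 Buffer: 100 mM Tris/HCl pH8, 100 mM KCl, 0.05% low protease BSA, 2.5% glycerol, 0.01% Tween-20. ClpP 10 microg/mL final; 20 min RT; delta FRET normalized to ADEP and DMSO controls.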
# Numbers without * were called inactive; ? = inconclusive; . = no result given; [ ] = another dose, or the depositor's remark.
# Second line of a record: Menin-MLL FL inh	TRPV1 PAM	D2 potentiator	Sfp PPTase inh	gsp ag	gsp antag	ClpP mod
> Cc1ccc(NC(=O)CCCc2ccccc2)c([N+](=O)[O-])c1
→ 3.1	-10	-1	3%	9%	-17%	-2.9%
> O=C1NC(c2ccccc2)Nc2c1sc(=S)n2-c1ccccc1 (stereo unspecified)
→ 2.5	11	-3	32µM*	-23%[15.4 µM]	-31%	.
> CCc1ccc2c(c1)C(O)(CC(=O)c1cccs1)C(=O)N2 (stereo unspecified)
→ 4.1	6	-7	3%	14%	9%	-1.9%
> O=C(OCn1nnc2ccccc2c1=O)C1CCN(S(=O)(=O)c2cccs2)CC1
→ -0.9	-2	-3	-1%	0%	-10%	-0.4%
> O=C(/C=C/c1ccccc1)NCCc1ccccc1
→ 0.2	-14	-10	-8%	.	-10%	3.7%
> O=C1c2ccccc2C(=O)c2c1ncn2-c1ccccc1
→ 2.3	4	-5	21%	15%	1%	1.8%
> Cc1cc(C)cc(OCC(=O)OCc2nnc(-c3ccccc3)o2)c1
→ 3.4	5	-3	10%	13%	-4%	-4.3%
> Cc1ccc(C(=O)Nc2nnc(-c3ccncc3)o2)cc1
→ 2.2	-2	-9	5%	-15%	6%	-5.3%
> CCN1C(=NCCc2ccc(Br)cc2)N[C@@H](c2ccccc2)[C@H](C(=O)OC)[C@H]1C
→ -5.4	-6	-30	-4%	.	2%	1.5%
> O=C1CC(C(=O)O)NC(=S)N1 (stereo unspecified)
→ .	.	3	.	-11%	-12%	.
> CCc1noc(C)c1C(=O)N(C)CC(=O)Nc1ccccc1Br
→ .	-9	-2	.	2%	13%	0.3%
> O=C(N/N=C/c1c(Cl)[nH]c2ccccc12)c1sc2ccccc2c1Cl
→ 4.7	-2	-9	10%	6%	-9%	1.9%
> C/C(=N/N=C(/C)c1cccs1)c1cccs1
→ -4.0	4	-1	-10%	-33%[inhibitor]	-3%	.
> O=C(Oc1ccc(=O)n(-c2ccccc2)n1)c1ccc(Cl)cc1
→ 1.9	0	-20	89µM*	-31%[inhibitor]	7%	1.7%
> CCN(Cc1ccccc1)C(=O)c1ccc(Cl)cc1[N+](=O)[O-]
→ -4.5	-1	-5	10%	-20%	12%	-0.1%
> CCN(CC)c1ccc(NC(=O)c2[nH]c(C)c(C(C)=O)c2C)c(C)c1
→ 7.5	-26	-11	10%	-13%	?	-1.3%
> C[C@@H]1CC2[C@@H]3CC[C@H]4CC(=O)CC[C@]4(C)C3=CC[C@]2(C)[C@@]1(O)C(=O)CO (stereo partly specified)
→ -7.1	1	-8	-7%	-1%[15.4 µM]	2%	-2.3%
> NC(=O)COc1ccc(NC(=O)CC23CC4CC(CC(C4)C2)C3)cc1
→ -1.7	-17	-3	7%	15%	11%	-1.5%
> COc1ccc(N=C2NN=C(c3c(C)[nH]c4ccccc34)CS2)cc1
→ 16	20	-2	35µM*	-6%	2%	.
> COc1ccc(CCn2c(C)cc(C(=O)COC(=O)c3cnc(C)cn3)c2C)cc1
→ .	?	4	.	-2%[15.4 µM]	-11%	.
> CC(=O)C1C(c2ccc([N+](=O)[O-])cc2)c2c(noc2C)CC1(C)O (stereo unspecified)
→ -0.7	-15	-6	3%	-3%[15.4 µM]	7%	.
> CCN1C(=O)[C@@H]2[C@@H](c3ccc(-c4ccc5c(c4)OCO5)c(OC)c3)N3CCC[C@@]3(C(=O)OC)[C@@H]2C1=O
→ .	?	-41	.	.	-19%	0.0%
> CCOc1ccc(S(=O)(=O)NCCC(=O)N(C)Cc2cccs2)cc1
→ .	0	-14	.	?	-15%	0.7%
> CCOc1ccc(-n2c(SCc3ccc(C(=O)OC)o3)nc3c(c2=O)SCC3)cc1
→ 2.1	-9	-1	2%	-1%	-2%	-3.8%
> CCOC(=O)c1nn(-c2ccccc2F)c(-c2ccccc2)c1C(=O)c1ccccc1
→ 0.7	.	-33	7%	-40%[inhibitor]	-11%	-1.0%
> COc1cc(CC(=O)C(=O)O)oc(=O)c1
→ .	.	-12	.	-5%	.	-2.6%
> CCCCCCCNC(=O)CN1N=C(c2ccc(C)cc2)CCC1=O
→ -2.4	28	0	4%	-1%	0%	0.7%
> CCOC(=O)Nc1sc(C)c(C)c1C(=O)OCC
→ 0.3	-4	8	-28%	2%	-4%	-4.7%
> CC(=O)C(Cc1ccccc1)NC(=O)CN1c2cccc3cccc(c23)S1(=O)=O (stereo unspecified)
→ .	23	3	.	-8%	8%	-24%
> CCc1ccc(N2CC(C(=O)OCC(=O)NC3CC3)CC2=O)cc1 (stereo unspecified)
→ .	.	-1	.	0%	-16%	.
> COC(=O)N/N=C/c1ccc(-c2ccc(Cl)c(Cl)c2)o1
→ 5.0	2	1	-4%	?	-31%	-18%
> CCOc1ccccc1N1C(=O)c2ccc(S(=O)(=O)c3ccc(C(=O)O)cc3)cc2C1=O
→ 4.6	4	-9	5%	28%	-3%	.
> CC(C)(C)N(NC(=O)Nc1ccc(Cl)cc1)C(=O)c1ccccc1
→ 0.9	14	3	15%	-35%[inhibitor]	?	-0.2%
> Cc1ccc(S(=O)(=O)c2c(N)n(CCN3CCOCC3)c3nc4ccccc4nc23)cc1C
→ 4.4	-3	-17	-1%	-14%	4%	28µM*
> CCOC(=O)C1CCN(C(=O)c2cc3c(=O)n4cccc(C)c4nc3s2)CC1
→ 0.1	4	-1	11%	?	8%	.
> COc1cc(C(=O)CCc2ccc3c(c2)OCO3)cc(OC)c1OC
→ .	.	-3	.	25%	12%	.
> Cc1ccc(NC(=O)CSCc2cc(=O)n3nc(C4CC4)sc3n2)cc1
→ .	18	-5	9%	?	4%	-1.0%
> Cc1cc(CN2CCN(CC(=O)Nc3cc(Cl)ccc3-n3cncn3)CC2)no1
→ .	-7	7	.	14%	-5%	-3.4%
> Cc1[nH]c2ccccc2c1CCNC(=O)c1c(N)no[n+]1[O-]
→ -1.8	-3	-6	-6%	-9%[15.4 µM]	-26%	.
> O=C(CCc1ccccc1)N/N=C/c1cccc(O)c1
→ 1.6	-16	-17	1%	-90%[inhibitor]	6%	-5.3%
> O=C(N/N=C/c1ccc2c(c1)OCO2)c1cccc(NC(=O)c2ccccc2Cl)c1
→ 0.0	-3	-7	15%	5%[15.4 µM]	12%	.
> CCCC(c1nnnn1CCC(C)C)N1CCC(C(N)=O)CC1 (stereo unspecified)
→ 1.0	-11	-15	-8%	7%	1%	-3.7%
> CCN(C(=O)CSc1nnc(Cc2cccc3ccccc23)n1N)C1CCS(=O)(=O)C1 (stereo unspecified)
→ -2.2	-4	-12	6%	17%	9%	-2.1%
> COc1ccc(C(CNC(=S)NCc2ccccc2)N2CCCC2)cc1 (stereo unspecified)
→ 0.9	-16	-17	8%	-18%[15.4 µM]	12%	0.6%
> Cc1ccnc(NC(=O)CNC(=O)c2ccc(C)s2)c1
→ .	-18	4	.	-15%[15.4 µM]	14%	0.4%
> CCc1nnc(NC(=O)C2CCN(S(=O)(=O)c3ccc(C)cc3)CC2)s1
→ -4.7	-11	-1	15%	?	6%	-29%
> COc1cccc(/C=C/C(=O)OCC(=O)c2ccc(S(=O)(=O)N3CCCCC3)cc2)c1OC
→ .	14	-11	.	-30%[inhibitor]	-9%	?
> O=C(OC1CCOC1=O)c1ccc(N2CCCC2)c([N+](=O)[O-])c1 (stereo unspecified)
→ 5.5	8	-5	1%	-11%	8%	.
> COc1ccc(CNc2ccc(S(N)(=O)=O)cc2)cc1
→ 3.4	-4	-11	8%	-16%	5%	-4.6%
> CS(=O)(=O)NNC(=O)C1Cc2c(ccc3ccccc23)O1 (stereo unspecified)
→ 7.0	5	3	10%	3%	4%	-5.1%
> CC(CN(C)Cc1ccccc1)OC(=O)c1cccc(F)c1 (stereo unspecified)
→ -5.7	18	-22	-19%	7%	4%	-3.9%
> O=C(CSc1nc(C2CC2)nc2ccccc12)N1CCc2ccccc2C1
→ 4.5	1	.	8%	.	.	.
> CCC(=O)N1CCc2cc(S(=O)(=O)NCCCOC)ccc21
→ 1.9	9	-16	9%	6%	3%	-0.9%
> CCc1cc2c(=O)c(-c3nc4ccccc4n3C)coc2c(CN2CCC(C)CC2)c1O
→ -8.6	1	-3	0%	2%	10%	.
> CCCc1n[nH]c2c1/C(=N\OCC)CC(C)(C)C2
→ 3.8	-3	-2	23%	-2%[15.4 µM]	-6%	-1.8%
> CSCCC(NC(=O)c1cc([N+](=O)[O-])ccc1Cl)C(=O)O (stereo unspecified)
→ 2.5	-6	1	-3%	-4%	5%	-1.9%
> Cc1ccccc1NC(=O)c1cccc(S(=O)(=O)N2CCOCC2)c1
→ 6.7	2	-4	13%	15%	2%	.
> CCN(C(=O)CSc1n[nH]c(-c2ccccc2)n1)c1c(N)n(Cc2ccccc2)c(=O)[nH]c1=O
→ .	-3	-2	.	-2%	4%	-2.1%
> O=C(CSc1nnc(CNC(=O)c2c(F)cccc2F)o1)NCc1ccc2c(c1)OCO2
→ .	.	-16	.	-97%[inhibitor]	.	-1.0%
> COc1cc(CNCCc2ccccc2)ccc1OCC(=O)NC(C)(C)C
→ 1.0	.	-20	8%	1%	-5%	1.5%

# Carrying on:
# Second line of a record: Menin-MLL FL inh	TRPV1 PAM	D2 potentiator	Sfp PPTase inh	gsp ag	gsp antag	ClpP mod
> Cc1ccc(CC(=O)NC2CCSC2=O)cc1 (stereo unspecified)
→ -1.0	19	-9	7%	-63%	?	0.4%
> O=C(O)CCCCCn1c(SCC(=O)N2CCCC2)nc2ccsc2c1=O
→ 4.7	3	-2	16%	?	-14%	0.9%
> COc1ccc(NC(C)=O)c(C)c1
→ -5.4	-5	-6	22%	6%	4%	-2.5%
> COc1ccc(-c2cn3c(C)c(C(=O)Nc4cccc(C)n4)sc3n2)cc1
→ 4.9	8	-8	40µM*	8%	?	-11%
> CCOC(=O)C1=CN2CCC[C@H]2CC1=O
→ .	.	-48	.	.	12%	-1.2%
> CC1(CCc2ccccc2)NC(=O)N(Cc2nnc(-c3ccccc3Br)o2)C1=O (stereo unspecified)
→ 0.8	0	-4	5%	0%	-6%	-1.9%
> COC(=O)c1ccc(C)c(NS(=O)(=O)c2ccc(OC)cc2)c1
→ -4.1	2	-6	-5%	-35%	10%	-1.9%
